Bioassay records as filed in PubChem.
BJeLR lethal – MLPCN primary cell-based screen for lethality selective to Ras in HRASV12 cells; BJeLR (HRASV12) viability, CellTiter-Glo ATP luminescence, 48 h; reference of the scale not given here; inhibition, % (concentration not given with the values); actives 0.17% (n = 300,000); AID 1554, 2009;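 active = replicate mean above 50%; inconclusive = above 50% but judged a plate artefact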;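 note: 50 nL library stock added to about 25 µL; numbers are from one replicate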
PrP 5UTR inh – inhibition of PrP 5' UTR reporter expression | AID 488862, 2010 | inhibition, % (concentration not given with the values) | cell-based PrP 5' UTR mRNA reporter, plate reader | actives 0.35% (n = 340,000);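 active = every replicate at 50% or more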;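 note: 0 = median of the neutral control wells; tested in H4 reporter cells; numbers are from one replicate; inactives centre near -14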
Sa RN4220 lethal – growth inhibition of S. aureus RN4220, primary screen, OD600; 16 h; inhibition, % (no concentration beside the values); actives 0.33% (n = 330,000);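 active = z-score of -3 or lower and OD600 up to 0.18 on both plates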;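 note: plate controls were untreated cells for no effect and reference antibiotic for full effect; stock transfer was 100 nL into about 80 µL; one replicate is shown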
Mtb hypoxia inh – PubChem AID 1159583; M. tuberculosis hypoxia-regulated fluorescent reporter, fluorescence; fluorescence inhibition, % (test concentration not listed); actives 0.1% (n = 300,000);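 active = 35 to 45% if threefold the growth effect, above 45% if 1.5-fold the growth effect; inactive = the rest, general growth blockers included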;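 note: wells of about 50 µL received 100 nL stock; 0% = vehicle wells and 100% = reference inhibitor wells; whole bacteria with a GFP reporter of the hypoxia response; strong numbers were not always called active; many hits fall short of the cut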
Bead autofluor – flagged as autofluorescent in microsphere protease counterscreen. actives 3.1% (n = 360,000). fluorescence intensity (concentration not given with the values). compound autofluorescence counterscreen, microsphere flow cytometry; stronger effect = higher value. AID 624483;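 active = at least 3 SD above the mean of all compounds, about 16000 in these data; inconclusive = too few beads counted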;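 note: 100 nL of 1 mM stock went into each well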
ugtP null kill – growth inhibition of ugtP-null S. aureus, primary screen, RN4220 ugtP deletion, OD600; 16 h; some inactives read as strong as hits; growth inhibition, % (concentration not given with the values); actives 0.54% (n = 330,000); AID 1259309, 2017;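 active = z-score under -3 and OD600 up to 0.15 on both plates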;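 note: plate controls were untreated wells for no effect and antibiotic for full effect; wells of about 80 µL received 100 nL stock; the first replicate is given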
Mtb hypoxia inh growth – recorded beside Mtb hypoxia inh, whose call it bears; growth inhibition, %; measured here: M. tuberculosis growth (absorbance);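 0% = vehicle and 100% = reference antibiotic; read after six days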
* hit, by the source's call; ? = inconclusive; nt = no result given.

[1] CCN(CC)C(NC(=O)Cc1ccccc1)C(Cl)(Cl)Cl (stereo not drawn)
[2] O=C(COC(=O)CNC(=O)c1ccccc1)Nc1ccc(F)c([N+](=O)[O-])c1
[3] O=C(CS)Nc1ccc2ccccc2c1
[4] COc1ccc(OCc2nc(N)nc(Nc3ccc(C)cc3)n2)cc1
[5] COc1ccc(NC(=O)CSc2nnc(CN3CCOCC3)n2-c2ccccc2)cc1Cl
[6] O=C(NCc1nc2ccccc2[nH]1)c1cccc(S(=O)(=O)N2CCOCC2)c1
[7] CCCCOc1ccccc1-c1ccccc1CN1[C@@H](C(C)C)COCCS1(=O)=O
[8] O=C(NC1CCCc2ccccc21)C1CCN(S(=O)(=O)N2CCCCCC2)CC1 (stereo not drawn)

screen / no.	1	2	3	4	5	6	7	8
BJeLR lethal	-16	7	-4	-7	-10	-8	nt	4
Sa RN4220 lethal	2.9	4.1	nt	3.8	-2.8	2.2	9.8	-6.5
PrP 5UTR inh	-13	-9	-7	-50	-6	-10	-14	9
Mtb hypoxia inh	7	-4	nt	4	2	-5	1	-10
Mtb hypoxia inh growth	5	4	nt	7	9	6	5	13
ugtP null kill	-1	8	nt	-4	-3	1	-3	-12
Bead autofluor	3356	4563	3488	9943	10617	22223*	3627	21253*

[9] Fc1ccc(-c2nn3c(C4COc5ccccc5O4)nnc3s2)cc1 (stereo not drawn)
[10] CCCc1ccc2oc(C(=O)N(Cc3ccncc3)CC3CCCO3)c(C)c2c1 (stereo not drawn)
[11] CCOC(=O)c1cccc(NC(=O)CC2Oc3ccccc3NC2=O)c1 (stereo not drawn)
[12] O=C(Nc1cccc(NC(=O)c2cccc(F)c2)n1)c1cccc(F)c1
[13] O=C(Cc1ccc(Br)cc1)NNC(=O)Nc1ccc(Cl)cc1
[14] CC(=O)N(C)c1ccc(OCC(O)Cn2c(C)nc3ccccc32)cc1 (stereo not drawn)
[15] COc1ccc(-c2ccc(OC)c(C3C4C=CCC(C)C4C(=O)N3Cc3ccccc3)c2)cc1C (stereo not drawn)
[16] Cc1nn(-c2ccccc2)c2[nH]c(=O)cc(C(F)F)c12

screen / no.	9	10	11	12	13	14	15	16
BJeLR lethal	-2	8	3	-17	-2	5	nt	nt
Sa RN4220 lethal	4.3	-5.4	0.9	90*	3.1	3.4	-5.6	1.0
PrP 5UTR inh	-33	-32	-3	16	-18	-14	nt	-26
Mtb hypoxia inh	10	-3	6	-2	3	4	12	-3
Mtb hypoxia inh growth	19	-17	-5	4	10	-2	9	3
ugtP null kill	-4	-9	1	19	-3	0	33	-5
Bead autofluor	9667	5821	3674	4118	2162	3935	nt	3803

[17] COc1cc(C(C)=O)ccc1Oc1cnccn1
[18] Cn1cc(CNC(=O)C2CCC(=O)N(Cc3ccccc3F)C2)cn1 (stereo not drawn)
[19] CN1CCN(c2cc(=O)n(-c3ccc(Cl)cc3)c(=O)[nH]2)CC1
[20] Cc1ccc(OCCOCCN2CCCC2)c(Br)c1
[21] CC(C)CC(=O)c1c[nH]c(C(=O)NCc2ccc(F)cc2)c1
[22] Oc1c(CN2CCOCC2)ccc(CN2CCOCC2)c1O
[23] O=C(CSc1nc2c([nH]c3ccccc32)c(=O)n1-c1ccc(F)cc1)NCc1ccco1
[24] O=C(CNc1cccc2ccccc12)NN=Cc1ccccn1

screen / no.	17	18	19	20	21	22	23	24
BJeLR lethal	-1	-6	9	7	0	nt	9	nt
Sa RN4220 lethal	-1.7	1.6	2.5	1.1	1.8	5.3	1.6	1.5
PrP 5UTR inh	-14	1	-36	-12	-19	-5	-2	nt
Mtb hypoxia inh	7	-2	4	13	13	19	7	2
Mtb hypoxia inh growth	3	-3	1	-2	26	8	0	-1
ugtP null kill	3	13	1	12	3	3	11	1
Bead autofluor	3523	?	5209	3645	3571	3320	5369	nt

[25] Cc1ccccc1NC(=S)Nc1cccc([N+](=O)[O-])c1
[26] C=C1CSc2nc3ccccc3c(=O)n21
[27] O=C(O)c1cc(NN=Cc2ccc(N3CCOCC3)cc2)ccc1Cl
[28] CC(C)c1cc(C(C)C)c(S(=O)(=O)N2CCNCC2)c(C(C)C)c1
[29] O=C(CN1CCN(S(=O)(=O)N2CCOCC2)CC1)Nc1cc(Cl)cc(Cl)c1
[30] CCN(CC(=O)NCc1cccs1)S(=O)(=O)c1ccc(F)cc1
[31] CCOc1ccc(-c2nn(-c3ccccc3)cc2/C=C2\SC(=S)N(Cc3ccco3)C2=O)cc1
[32] Cc1c(Br)c([N+](=O)[O-])nn1CC(=O)Nc1sc2c(c1C(=O)OC(C)C)CCC(C)C2 (stereo not drawn)

screen / no.	25	26	27	28	29	30	31	32
BJeLR lethal	-1	3	nt	-2	-9	4	-2	1
Sa RN4220 lethal	7.6	2.4	3.4	6.3	4.2	1.7	-1.8	7.9
PrP 5UTR inh	-9	-7	nt	-27	-19	-11	-9	-5
Mtb hypoxia inh	6	nt	-1	13	3	10	3	2
Mtb hypoxia inh growth	4	nt	0	0	-3	1	-5	2
ugtP null kill	1	-5	-1	34	7	3	2	-2
Bead autofluor	2445	4297	nt	3162	2760	4753	2009	10236

[33] Cc1cc(C)c2c3c(sc2n1)C(c1ccccc1)C(C#N)=C(N)O3 (stereo not drawn)
[34] CCCOc1ccc(N2C(=O)CC(N(Cc3ccccc3)N=O)C2=O)cc1 (stereo not drawn)
[35] C#CCOCCOCCOCCNc1nc(N2CCN(C(=O)[C@H]([C@@H](C)CC)n3cc([C@@H](N)Cc4ccc(O)cc4)nn3)CC2)nc(N2CCN(C(=O)[C@H]([C@@H](C)CC)n3cc([C@@H](N)CC(C)C)nn3)CC2)n1
[36] CC1(C)CC(=O)c2c(O)cc(O)cc2O1
[37] COc1ccccc1C1OCC(C)([N+](=O)[O-])CO1 (stereo not drawn)
[38] COc1cc(OC)cc(C(=O)NNC(=O)c2cc(=O)[nH]c3ccccc23)c1
[39] NC(=O)CC(NC(=O)Cc1cccc2ccccc12)c1ccc(NC2CCC2)c([N+](=O)[O-])c1 (stereo not drawn)
[40] Cc1c(NC(=O)/C(C#N)=C/c2ccc(-c3ccc(Cl)cc3)o2)c(=O)n(-c2ccccc2)n1C

screen / no.	33	34	35	36	37	38	39	40
BJeLR lethal	6	-2	-4	-10	nt	2	-10	-14
Sa RN4220 lethal	-6.7	1.2	nt	0.1	5.5	1.7	2.8	3.3
PrP 5UTR inh	-2	nt	-23	-10	-15	-6	-24	10
Mtb hypoxia inh	1	16	nt	-4	19	9	5	6
Mtb hypoxia inh growth	4	6	nt	5	8	7	6	7
ugtP null kill	17	8	nt	1	7	2	0	11
Bead autofluor	7635	4374	3181	22477*	4140	5176	3725	2822

[41] COC(=O)c1ccccc1C(=O)N(c1ccccc1)c1ccccc1
[42] COC(=O)CSc1nnc(-c2ccco2)n1-c1ccc(C)cc1
[43] Cc1cc(C)n2c3c(c(C#N)c2n1)CC(C)(C)OC3
[44] CCOC(=O)C(NC(C)=O)(Nc1ccc(S(=O)(=O)Nc2cc(C)nc(C)n2)cc1)C(F)(F)F (stereo not drawn)
[45] COc1ccc(NC(=O)C2OC3OC(C)(C)OC3C3OC(C)(C)OC23)cc1 (stereo not drawn)
[46] COc1ccc(C2CC(=O)c3c(O)cc(O)cc3O2)cc1O (stereo not drawn)
[47] NC(=O)c1nsc(C(=O)N(CC(=O)NCc2ccc3c(c2)OCO3)C2CCCCC2)c1N
[48] CCOC(=O)Cc1csc(NC(=O)CCCc2ccccc2)n1

screen / no.	41	42	43	44	45	46	47	48
BJeLR lethal	15	2	-3	4	-10	nt	6	-10
Sa RN4220 lethal	1.6	1.3	0.0	-2.0	0.5	2.2	0.0	nt
PrP 5UTR inh	7	-8	-3	-16	-1	-23	-9	-16
Mtb hypoxia inh	19	11	nt	3	1	-1	nt	nt
Mtb hypoxia inh growth	11	11	nt	8	2	1	nt	nt
ugtP null kill	-2	7	4	-4	0	-18	5	nt
Bead autofluor	?	15516	3352	3770	23845*	5829	5245	4322

[49] O=C(N/N=C/c1ccc[nH]1)c1ccc(COc2cccc3cccnc23)cc1
[50] Cc1nc2ccccc2c(=O)[nH]1
[51] O=C(CCn1c(=O)c2ccccc2n(CC(=O)NC2CCCC2)c1=O)NCc1ccco1
[52] Cc1nnc2c(Oc3ccccc3)nc3ccccc3n12
[53] N#Cc1c(NC(=O)CSc2nnc(-c3ccco3)n2-c2ccccc2)sc2c1CCC2
[54] CCN(C(=O)COC(=O)CSc1cc(C)c2ccccc2n1)c1ccccc1
[55] CC(=O)NC(=Cc1cccnc1)C(=O)Nc1ccc(Cl)cc1
[56] COc1ccc(C(=O)C(OC(=O)CNC(=O)c2ccco2)c2ccccc2)cc1 (stereo not drawn)

screen / no.	49	50	51	52	53	54	55	56
BJeLR lethal	4	-16	0	7	2	3	nt	0
Sa RN4220 lethal	nt	3.5	5.7	0.5	22	6.8	3.2	3.4
PrP 5UTR inh	-26	-11	-27	-18	-10	-12	nt	-22
Mtb hypoxia inh	nt	0	15	nt	nt	0	6	14
Mtb hypoxia inh growth	nt	1	9	nt	nt	2	6	12
ugtP null kill	nt	-5	0	7	1	4	1	4
Bead autofluor	3349	5088	9227	2394	2758	5587	nt	3904

[57] Clc1ccccc1-c1nc2ccccc2c2nncn12
[58] COc1cccc(NC(=O)c2cc(CN3C(=O)c4ccccc4C3=O)ccc2OC)c1
[59] C/C(=N\NC(=S)NCc1ccccc1)c1ccc(Cl)s1
[60] O=C1CN(S(=O)(=O)c2ccc([N+](=O)[O-])cc2)CC(=O)N1
[61] Cc1ccc(/C=C/C(=O)OCC(=O)Nc2cccnc2Cl)cc1
[62] COc1ccc(Cl)cc1NC(=O)C1CC(=O)N(c2ccc(F)cc2)C1 (stereo not drawn)
[63] Oc1ccc(CNc2ccc(F)cc2)c2cccnc12

screen / no.	57	58	59	60	61	62	63
BJeLR lethal	-3	-8	-3	-8	nt	-6	-5
Sa RN4220 lethal	0.8	3.6	nt	15	4.2	10	6.8
PrP 5UTR inh	-3	-19	11	-24	-9	-4	-14
Mtb hypoxia inh	-4	-3	nt	0	9	7	1
Mtb hypoxia inh growth	-5	-4	nt	-5	7	5	-1
ugtP null kill	-8	-4	nt	6	2	-2	5
Bead autofluor	4115	10463	4100	5200	3824	2860	?
